BasE inh = inhibitors of Acinetobacter baumannii siderophore enzyme BasE; purified BasE, fluorescence polarization binding displacement; inhibition, % (test concentration not listed); actives 0.1% (n = 84,000); AID 485350;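 active means both replicates above 25% with normal brightness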;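 further: 0% = negative plate control signal and 100% = positive plate control signal; stock transfer was 100 nL into about 30 µL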
LANA-nucl inh = inhibitors of KSHV LANA binding to nucleosomes. FITC-LANA1-23 / chicken nucleosome fluorescence polarization; active compounds read low. z-score (test concentration not listed). actives 0.3% (n = 51,000);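 active means both repeat wells score below -2 in polarization z-score versus plate sample wells, excluding overly bright wells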;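 further: 100 nL library stock added to about 30 µL; numbers are from one replicate; some results filed as inactive read as strong as hits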
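Test system: purified chicken nucleosomes with FITC-labelled LANA N-terminal peptide (1-23); Input: 240 nM purified chicken nucleosomes (480 nM peptide binding sites), final; Medium: TEN-BT buffer, pH 7.5; Timing: 10–45 min, room temperature; Technique: fluorescence polarization, 480 nm excitation, 535 nm parallel and perpendicular emission; Replication: duplicates.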
Starred values were filed as active, the others as inactive; . = not tested or not shown; & = joins results of further samples. These rows are one share of the data, so the mix of outcomes need not match the whole.

SMILES | BasE inh | LANA-nucl inh
Cc1[nH]c(=O)[nH]c(=O)c1/C=N/NC(N)=O | 1.2 | -0.688
NC(=O)Cn1c(NCc2ccccc2)nc2ccccc21 | 3.8 | .
Cc1c(C(=O)n2cnc3ccccc32)oc2ccccc12 | -0.1 | -0.21
CCOC(=O)c1cc(/C(C)=N/NS(=O)(=O)c2cc(C(F)(F)F)cc(C(F)(F)F)c2)on1 | 0.4 | -0.615
Cn1c(Cc2nc(-c3cnccn3)no2)nnc1SCc1ccccc1 | -1.1 | 0.0645
O=C(Cc1coc2cc(O)ccc12)OCC(=O)N1CCCC1=O | 12.5 | .
COc1ccc(Cn2ccn(CC(N)=O)c(=O)c2=O)cc1 | 1.7 | -0.0085
COC(=O)CN(Cc1ccccc1)S(=O)(=O)c1ccc2c(c1)OCCO2 | 2.9 | -0.619
O=C(O)CC(C(=O)NCc1ccccc1)C1CCCO1 (stereo not given) | -0.5 | -0.489
Cn1cc(S(=O)(=O)Cc2ccc(Br)cc2)c2ccccc21 | -1.4 | 0.396
COc1ccc(OCC2CNC(=O)O2)cc1 (stereo not given) | 0.7 | -0.36
COC(=O)C(NC(=O)c1c(C)nn(C)c1Cl)c1ccccc1 (stereo not given) | . | -1.35
CCOC(=O)C1=C(CC)Nc2ccccc2N=C1NC(=O)c1cc(OC)cc(OC)c1 | -2.3 | .
NC(=O)C1(N2CCCCC2)CCN(C(=O)Nc2ccccc2)CC1 | 2.8 | 0.35
CC(=O)Nc1ccc2ccccc2c1 | 5.8 | -1.82
CC(C)NC(=O)N(Cc1cccnc1)Cc1ccc(Cl)cc1Cl | 0.8 | -0.395
C[C@H](NCCc1ccc(O)cc1)[C@H](O)c1ccc(O)cc1 | -1.1 | -0.405
NC(=O)NC(=O)CSc1ccccc1 | -0.5 | .
COc1ccccc1NC(=O)NC1CC2CCCC(C1)N2C1CC1 (stereo not given) | -2.8 | -0.258
O=S(=O)(/C=C/c1ccccc1)N1CCN(Cc2nnc(-c3ccccc3)o2)CC1 | -5.7 | .
COC(=O)Cc1[nH]n(-c2ccccc2)c(=O)c1C(C)=Nc1ccccc1 | 2.3 | 0.792
O=C1CCCCC1Nc1ccccc1 (stereo not given) | 1.0 | -0.092
CCOc1ccc(CN(C)C(=O)CNC(C)c2ccccc2OC)cc1 (stereo not given) | 2.6 | .
Cc1cc(C(=O)COC(=O)c2cnccn2)c(C)n1-c1ccc2c(c1)OCO2 | -1.3 | .
CC1CCCC(C)N1C(=O)COC(=O)COc1ccc(C#N)cc1 (stereo not given) | 1.4 | .

(cont.)
SMILES | BasE inh | LANA-nucl inh
CSC(=NCc1ccc(C)cc1)Nc1ccccc1 | . | 0.364
NS(=O)(=O)c1ccc(CNC(=O)NC23CC4CC(CC(C4)C2)C3)cc1 | -5.7 | 2.16
O=C(O)CC1C(=O)NCCN1CC1CCCCC1 (stereo not given) | -0.7 | 0.453
CCOC(=O)c1oc2ccccc2c1CN(C)Cc1ccccc1F | 0.1 | .
O=C(CCCSc1nnc(-c2ccccc2)o1)c1ccc(Br)cc1 | -0.4 | .
CS(=O)(=O)NNc1nccc(-c2cccnc2)n1 | 4.3 | 0.272
Cc1ccoc1C(=O)NCc1occc1C(=O)O | -1.1 | 0.178
CN(C(=O)CSc1ccc2c(c1)OCCO2)C1CCS(=O)(=O)C1 (stereo not given) | 0.4 | .
NC(=S)Nc1ccc(C(=O)O)cc1 | -0.8 | .
O=C(CCNC(=O)c1ccc(Cl)cc1)NN1C(=O)NC2(CCCCC2)C1=O | 0.6 | .
Cc1cc(-c2ccccc2)nc2c1c(=O)[nH]c(=O)n2CC(C)C | 0.1 | .
COc1ccc(/C=C2\SC(=O)N(Cc3ccccc3Cl)C2=O)cc1O | 0.5 | -0.126
CC(C)c1ccc(C(O)CN2CCN(S(=O)(=O)c3cccc(C(F)(F)F)c3)CC2)cc1 (stereo not given) | -0.1 | .
O=C1/C(=N\O)CC2(C/C1=N/O)OCCO2 | 3.9 | -0.215
O=C(NCCN1CCN(c2cccc(Cl)c2)CC1)c1[nH]nc2c1COc1ccccc1-2 | -1.3 | -0.666
COc1ccc(CNC(=O)COc2ncnc3c2cnn3-c2ccccc2)cc1 | -0.2 | .
Cc1ccc(NC=C2C(=O)OC(C)(C)OC2=O)cc1 | 1.3 | .
O=C(O)CCSc1nnc2sc3ccccc3n12 | 0.2 | .
N#CSc1ccc2c(c1)CCCN2C(=O)Nc1ccccc1 | -1.8 | .
CN1N=C(C(C)(C)C)CC1=O | -0.2 | .
CCOC(=O)C(C#N)=c1sc(=C(C#N)C(=O)OCC)s1 | 1.2 | -0.715
COc1ccccc1NC(=O)CN(Cc1ccco1)C(=O)/C=C/c1ccc(C)o1 | 1.0 | .
COc1ccc(-c2nnnn2-c2ccc(F)cc2F)cc1 | . | 0.0545
CC(=O)NCCC(=O)Nc1ccc2c(c1)-c1ccccc1C2 | -0.8 | .
Cc1cc(C)c2c(-n3cccc3)nn(CCCC(=O)Nc3ccc(F)cc3C)c2n1 | 0.2 | 0.979

Other entries
SMILES | BasE inh | LANA-nucl inh
COc1cc(=O)n(C)c2cc(N(C)C)ccc12 | -0.4 | .
CC1CC(C)CN(S(=O)(=O)c2ccc3c(c2)oc(=O)n3CC(=O)Nc2ccccc2F)C1 (stereo not given) | 0.8 | -0.815
CCc1nnc(NC(=O)/C=C/c2ccc(S(=O)(=O)N3CCCCCC3)cc2)s1 | 2.1 | .
O=C(O)COc1ccc2c(c1)CCCC2 | 0.3 | -0.357
Cc1ccc(C)c(N=C(N)N=C(N)N)c1 | 1.1 | -0.0185
Nc1nonc1-n1cc(CN2CCCCC2)nn1 | -0.8 | -0.294
C=CCSc1nc(N)cc(=O)[nH]1 | 1.0 | .
Fc1ccc(-c2noc(-c3ccc4c(c3)CCO4)n2)cc1 | -1.0 | 0.922
CCC1(C)Cc2sc3c(=O)[nH]c(=S)[nH]c3c2CO1 (stereo not given) | -0.1 | 0.604
O=C(NC1CCCC1)c1cc(-c2ccccc2)on1 | -4.7 | 0.327
Cc1ccc(C)c(OCC(=O)N/N=C\c2cccn2C)c1 | -1.9 | 0.265
Cc1cc(C)n(-c2nc(-c3ccccc3)cs2)n1 | . | -0.264
O=C(c1cc2ccccc2cc1O)N1CCOCC1 | -3.3 | .
CS(=O)(=O)N1CCC(C(=O)Nc2ccccc2)CC1 | 1.2 | -0.239
Cc1cc(Cl)cc2sc(NC(=O)C3CC3)nc12 | 1.3 | -1.47
O=c1c2ccccc2c(-c2nnc(SCC3CCCCO3)o2)nn1Cc1ccccc1 (stereo not given) | 1.2 | .
Cc1ccc(NC(=S)N(CCCN2CCOCC2)C(C)c2cc3ccccc3o2)cc1C (stereo not given) | 0.3 | 0.294
Cc1ccc(-n2nnnc2SCc2nc3sc4c(c3c(=O)[nH]2)CCCC4)c(C)c1 | -7.8 | .
Cc1csc(NC(=O)C2CCC(CNS(=O)(=O)c3cccc4nsnc34)CC2)n1 (stereo not given) | 28.5* | -1.28
CNc1[nH]cnc(=S)c1N | 2.2 | .
COc1cccc(NCc2nnc(SCC(=O)NC3CCS(=O)(=O)C3)n2C2CCCCC2)c1 (stereo not given) | -2.0 | .
CC(C)CNC(=O)c1cccc(Cl)c1 | -1.4 | 0.309
CC(C)c1ccc(NCC(O)CSc2ccccc2)cc1 (stereo not given) | 0.1 | .
Cc1ccc2c(CSc3nc(N)cc(N)n3)cc(=O)oc2c1C | -14.8 | .
CC(C)N(CCC#N)C(=O)Nc1ccccc1Cl | 0.8 | -1.12

(cont.)
SMILES | BasE inh | LANA-nucl inh
Cc1cc(C)c(C(=O)O)c(Cl)n1 | 2.1 | .
Clc1ccc(-c2cc(C3CCNCC3)[nH]n2)c(Cl)c1 | . | -0.356
Cc1oc2c(c1C(=O)NCCO)CCCC2 | -1.3 | 0.671
Cc1cc(NC(=O)Cn2c(=O)/c(=C\c3cccs3)s/c2=C\C(=O)C(C)(C)C)no1 | 0.6 | .
C1=C(N2CCC(Cc3ccccc3)CC2)CCc2ccccc21 | . | -0.085
N#Cc1c2ccccc2c(C#N)c2ccccc12 | 1.3 | 0.379
CC(=O)Oc1ccc(C(=O)c2ccccc2)c(OC(C)=O)c1 | 5.4 | .
Cc1ccc(NC(=O)CN(C)Cc2nnc(-c3cc4c(s3)CCCC4)o2)cc1 | -0.6 | .
CCOC(=O)c1cc(C)[nH]n1 | -2.4 | 0.157
O=S(=O)(NC1=NCC2CCCC2N1)c1ccccc1 (stereo not given) | -1.3 | .
O=C(Nc1ccccc1)c1ccc2c(c1)C(=O)N(CC1CCCO1)C2=O (stereo not given) | -1.9 | -0.076
c1ccc2c(c1)OCC(CSc1nc3ccccc3s1)O2 (stereo not given) | 3.4 | .
COc1ccc(/C=C2\SC(=S)N(CCC(=O)N(C)C3CCS(=O)(=O)C3)C2=O)cc1 (stereo not given) | 0.3 | -0.41
COc1ccc2nc(C)cc(-n3nc(C)cc3C)c2c1 | -3.6 | .
CCCC/C(C)=N/N1C(C)CCCC1C (stereo not given) | -1.4 | .
Cc1cc2nc(CSc3ccccc3NC(=O)CC(C)C)cc(=O)n2o1 | 0.8 | 1.09
CCc1noc(C)c1C(=O)NCCN(C)C | 1.7 | -0.479
CC1CCCC(C)N1C(=O)C1CCCCC1C(=O)O (stereo not given) | -1.1 | 0.195
CCCCN(CC)S(=O)(=O)c1ccc(C(=O)Nc2nnc(COC)o2)cc1 | 0.7 | -0.938
COc1ccccc1CC(=O)Nc1c[nH]c(=O)[nH]c1=O | -0.8 | 0.296
N#Cc1c(N)nc2c3c1NC(O)(c1ccccc1)C(C#N)C3c1cc(Cl)ccc1O2 (stereo not given) | 4.2 | 0.244
O=C(C1CCCN(S(=O)(=O)c2ccc3nc(-c4ccccc4)[nH]c3c2)C1)N1CCOCC1 (stereo not given) | -3.0 | 0.0915
Cc1ccc(C)c(Cn2c3ccccc3c3cnn(CC(=O)NCCN4CCN(C)CC4)c(=O)c32)c1 | -1.7 | -0.081
CSC1=NC2(CCN(C(=O)OC(C)(C)C)CC2)N=C1c1ccccc1 | -0.8 | 0.2
Cc1[nH]c(=O)[nH]c(=O)c1NC(=O)CSc1nc2c(C)cccc2cc1C#N | -1.2 | 0.643

The listing continues:
SMILES | BasE inh | LANA-nucl inh
COC(=O)c1ccc(/C=N/O)cc1 | 1.3 | .
Cc1ccc(C)n1-c1ccc(OC(F)F)cc1 | -7.3 | .
O=C(c1cc2ccccc2c(=O)o1)N1CCN(C(c2ccccc2)c2ccccc2)CC1 | 0.9 | .
CNNC(=S)NCCC1=CCCCC1 | -0.3 | -0.218
Cc1cccc(NC(=O)CSc2nc3c(c(-c4ccco4)c2C#N)CCCC3)c1C | -1.7 | .
CCCCN(C(=O)c1cccs1)C1CCS(=O)(=O)C1 (stereo not given) | 2.4 | -0.948
N#Cc1ccc(C(=O)OCC(=O)NC2CC2)cc1 | -0.5 | .
CCN(CC(=O)NCc1cccs1)C(=O)Cc1csc(-c2ccccc2)n1 | 0.2 | .
N#C/C(=C/c1ccc(Br)o1)c1ccc(C(=O)O)cc1 | -2.4 | 0.564
O=C1CC(c2ccccc2)Cc2nc(NC3CC3)ncc21 (stereo not given) | 0.1 | -1.33
Cc1ccc(-c2nnc(SCc3c(C)cc(C)cc3C)o2)cc1 | 0.1 | -0.134
CCc1cccc2c(CC(=O)O)c(C)[nH]c12 | 1.6 | -0.66
COc1ccc(-c2nc(SC)n(C(=O)c3ccccc3OC)n2)cc1 | -3.0 | 0.047
CCNc1nc(NCC)n2c(SCC(=O)NCC3CCCCC3)nnc2n1 | -0.1 | .
CCCCn1c(SCC(=O)NCC)nc2cc(S(=O)(=O)N3CCCCC3)ccc21 | -1.6 | .
CCN(CC)CC(=O)c1sc2ccc(Cl)cc2c1C | . | 0.228
CC1=C(/C=C/C(C)=C/C=C/C(C)=C\C(=O)O)C(C)(C)CCC1 | 2.8&-0.7&4.1 | -0.238&0.0395&-0.242&0.473

Among those listed so far, 14 contain an NH in an aromatic ring:
SMILES | BasE inh | LANA-nucl inh
Cc1[nH]c(=O)[nH]c(=O)c1/C=N/NC(N)=O | 1.2 | -0.688
COC(=O)Cc1[nH]n(-c2ccccc2)c(=O)c1C(C)=Nc1ccccc1 | 2.3 | 0.792
Cc1cc(-c2ccccc2)nc2c1c(=O)[nH]c(=O)n2CC(C)C | 0.1 | .
O=C(NCCN1CCN(c2cccc(Cl)c2)CC1)c1[nH]nc2c1COc1ccccc1-2 | -1.3 | -0.666
C=CCSc1nc(N)cc(=O)[nH]1 | 1.0 | .
CCC1(C)Cc2sc3c(=O)[nH]c(=S)[nH]c3c2CO1 (stereo not given) | -0.1 | 0.604
Cc1ccc(-n2nnnc2SCc2nc3sc4c(c3c(=O)[nH]2)CCCC4)c(C)c1 | -7.8 | .
CNc1[nH]cnc(=S)c1N | 2.2 | .
Clc1ccc(-c2cc(C3CCNCC3)[nH]n2)c(Cl)c1 | . | -0.356
CCOC(=O)c1cc(C)[nH]n1 | -2.4 | 0.157
COc1ccccc1CC(=O)Nc1c[nH]c(=O)[nH]c1=O | -0.8 | 0.296
O=C(C1CCCN(S(=O)(=O)c2ccc3nc(-c4ccccc4)[nH]c3c2)C1)N1CCOCC1 (stereo not given) | -3.0 | 0.0915
Cc1[nH]c(=O)[nH]c(=O)c1NC(=O)CSc1nc2c(C)cccc2cc1C#N | -1.2 | 0.643
CCc1cccc2c(CC(=O)O)c(C)[nH]c12 | 1.6 | -0.66

As entered above.
For LANA-nucl inh, CC1=C(/C=C/C(C)=C/C=C/C(C)=C\C(=O)O)C(C)(C)CCC1 is entered as -0.238&0.0395&-0.242&0.473
For LANA-nucl inh, CCCCN(C(=O)c1cccs1)C1CCS(=O)(=O)C1 (stereo not given) is entered as -0.948
